Screening results deposited in PubChem by several laboratories.
UCH37 DUB inh: human UCH37 deubiquitinating enzyme inhibition; Q9Y5K5; purified proteasome/UCH37, Ub-AMC cleavage fluorescence; inhibition, % (concentration not given with the values); hit rate 0.33% among 330,000; AID 588478;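 active = mean of two replicates above 20%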;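 note: 0% = compound-free wells with enzyme and 100% = wells lacking proteasome; stock transfer was 100 nL into about 20 µL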
Target sequence (Q9Y5K5 whole entry, looked up): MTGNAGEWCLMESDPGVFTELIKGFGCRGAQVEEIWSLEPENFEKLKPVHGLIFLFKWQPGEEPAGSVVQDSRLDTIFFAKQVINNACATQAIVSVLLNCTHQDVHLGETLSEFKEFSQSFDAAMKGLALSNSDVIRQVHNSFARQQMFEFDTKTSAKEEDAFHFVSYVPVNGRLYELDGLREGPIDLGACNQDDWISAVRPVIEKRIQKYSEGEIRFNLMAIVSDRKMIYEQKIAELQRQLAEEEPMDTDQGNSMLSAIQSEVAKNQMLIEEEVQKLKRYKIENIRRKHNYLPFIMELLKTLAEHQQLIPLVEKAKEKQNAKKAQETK
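Material: Human UCH37 enzyme supplied as purified proteasome complex | Schedule: 30 min compound-proteasome preincubation then 25 min substrate reaction, room temperature | Detection: AMC fluorescence from Ub-AMC cleavage, excitation 355 nm, emission 460 nm | Benchmarks: Wells without proteasome as full block, compound-free enzyme plus substrate as uninhibited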
ALR inh: blocks human ALR sulfhydryl oxidase activity. inhibition, % (no concentration beside the values). hit rate 3.8% among 290,000. purified ALR, DTT oxidation, H2O2 HRP-luminol luminescence. P55789;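 active = mean and each replicate at 75% or more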;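 note: stock transfer was 7.5 nL into about 7.5 µL; 0% = neutral wells and 100% = wells with inactivated enzyme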
Target sequence (P55789 whole entry, looked up): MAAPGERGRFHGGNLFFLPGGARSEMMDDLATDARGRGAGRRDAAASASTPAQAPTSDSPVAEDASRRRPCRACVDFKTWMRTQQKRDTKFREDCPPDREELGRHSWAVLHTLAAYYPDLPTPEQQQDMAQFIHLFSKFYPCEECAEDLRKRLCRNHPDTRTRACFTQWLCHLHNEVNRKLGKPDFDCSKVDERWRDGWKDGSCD
rRNA inh HTS: inhibitors of bacterial rRNA selective over humanized ribosomes; AID 720706; hit rate 1.6% among 350,000; GFP signal change (wild-type ribosome), % (test concentration not listed); E. coli WT GFP vs humanized-ribosome RFP mutants, fluorescence, 24 h; active compounds read low; DMSO median 0, no signal -100;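 active = significant combined selectivity score with lowered wild-type GFP, culture density cut under 30%, mutant RFP and density less affected; inactive = any of these conditions unmet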; note: one replicate is shown; some compounds called inactive have numbers as strong as hits
FGF22 binding: FGF22 (human) thermal shift binding | calls only at 9.99 µM | hit rate 1.5% among 340,000 | recombinant FGF22 thermal shift, SYPRO orange fluorescence; percent of sucrose octasulfate shift, DMSO zero | Q9HCT0 | AID 651658;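 active = melting point raised past a set limit in the mean and every replicate; three in four hits are not shown here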
B2AR ag: human beta-2 adrenergic receptor agonism by FAP | P07550 | Am2.2-beta2AR cells, FAP receptor internalization, flow cytometry; reference of the scale not given here | response, % (no concentration beside the values) | hit rate 0.43% among 340,000;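 active = response above a set limit, near 3 SD of response in nonfluorescent compounds, cut at about 42% in these data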;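 note: stock transfer was 100 nL into about 11 µL; a reference agonist was the positive control; negative values mostly stem from fluorescent compounds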
HNF4A DNA FP: change in binding of human HNF4 alpha to DNA; P41235; HNF4a-FITC DNA binding, fluorescence polarization, 1 h; activity change, % at 10 µM; hit rate 0.3% among 360,000; in the data active = activity change above about 30%, passing the limit was not always enough;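 note: controls were the assay level and a saturating level of protein; the project sought stronger binding though the title names inhibitors; some compounds called inactive have numbers as strong as hits; positive values seem to mean higher polarization but the record does not say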
Target sequence (P41235 whole entry, looked up): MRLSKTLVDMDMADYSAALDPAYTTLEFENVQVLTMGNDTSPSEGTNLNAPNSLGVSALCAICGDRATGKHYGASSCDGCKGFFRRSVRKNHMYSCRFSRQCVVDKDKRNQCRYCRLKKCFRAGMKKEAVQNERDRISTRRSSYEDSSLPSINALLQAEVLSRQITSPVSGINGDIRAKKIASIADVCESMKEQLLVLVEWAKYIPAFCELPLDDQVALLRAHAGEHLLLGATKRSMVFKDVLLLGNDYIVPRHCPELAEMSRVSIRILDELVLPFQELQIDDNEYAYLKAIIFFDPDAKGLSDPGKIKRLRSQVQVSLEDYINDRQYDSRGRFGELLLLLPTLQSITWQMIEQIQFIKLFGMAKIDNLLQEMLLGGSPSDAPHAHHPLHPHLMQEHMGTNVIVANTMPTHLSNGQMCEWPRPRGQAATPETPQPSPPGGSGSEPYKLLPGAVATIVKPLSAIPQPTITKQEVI
Ecoli growth: blocks Escherichia coli growth; OD600, 23 h; active compounds read low; OD600 absorbance (concentration not given with the values); hit rate 0.21% among 330,000; AID 1053175;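 active = OD600 absorbance below the run mean of sample wells minus 3.6 SD, in any replicate, cut at about 0.56 in these data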;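 note: stock transfer was 300 nL into about 60 µL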
rRNA inh HTS OD600: recorded beside rRNA inh HTS, whose call it bears; OD600 change, %; measured here: OD600 growth;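 optical density of the mix in the first replicate; 0 = DMSO median and -100 = no signal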
rRNA inh HTS RFP: also measured in rRNA inh HTS; calls as there; RFP signal change, %; measured here: RFP humanized mutant strains;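 first replicate; 0 = DMSO median and -100 = no signal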
The depositor's hits bear a star; i = inactive; . = not tested or not shown. The list is partial. The share of hits here may be higher or lower than overall.

FGF22 binding	HNF4A DNA FP	rRNA inh HTS RFP	B2AR ag	rRNA inh HTS	rRNA inh HTS OD600	Structure	UCH37 DUB inh	Ecoli growth	ALR inh
i	1.3	2.6	.	14.6	28.4	COc1ccc(OCc2nnc(SCC(=O)Nc3oc(C)c4c(C)n[nH]c(=O)c34)n2C)cc1	.	.	.
i	1.0	-0.2	-1.2	12.4	3.4	Cc1ccc(Cn2c(C(C)Nc3nc(-c4ccc(F)cc4)cs3)nc3cc(C(F)(F)F)ccc32)cc1 (stereo not drawn)	-0.3	0.695	-27.9
i	4.4	0.5	-6.7	3.6	17.1	CCOC(=O)C1CCCN(C(=O)CCc2nnc(-c3ccc(C(C)=O)s3)o2)C1 (stereo not drawn)	6.8	0.685	-2.9
i	-0.6	-0.6	-14.0	3.3	6.1	COc1ccc(C(=O)NCCc2nnc3ccc(SCC(=O)NCc4ccccc4)nn23)cc1	0.6	0.674	1.8
.	-2.6	.	3.7	.	.	COc1cc(C)c(C(C)C)cc1S(=O)(=O)N1CCOCC1	-3.7	0.688	-2.0
.	0.7	-5.2	11.6	6.6	-1.0	CCN(CC)CCN(C(=O)c1cccc([N+](=O)[O-])c1)c1nc2ccc(OC)cc2s1	0.9	0.686	-9.6
i	-7.8	-17.3	1.6	-51.1	-71.7	O=C1c2ccccc2C(=O)c2[nH]c(=O)[nH]c21	41.4*	0.408*	.
i	1.1	-0.1	.	-2.5	-2.3	CC(C)N(C)c1ncnc2c1ncn2[C@H]1CN(CCc2ccccc2)C[C@@H](CO)O1	.	.	.
.	5.8	.	-1.4	.	.	O=C(COc1ccccc1Br)NCc1ccco1	1.9	0.639	34.4
i	2.6	-0.5	2.9	-7.1	-12.2	CCCn1c(C(O)c2ccc(C)cc2)nc2ccccc21 (stereo not drawn)	3.6	0.664	18.5

The results go on.
FGF22 binding	HNF4A DNA FP	rRNA inh HTS RFP	B2AR ag	rRNA inh HTS	rRNA inh HTS OD600	Structure	UCH37 DUB inh	Ecoli growth	ALR inh
i	0.8	-0.8	-0.5	0.3	0.9	CCC(C(=O)NC(C)(C)C)N(Cc1ccccc1Cl)C(=O)c1snc(C(N)=O)c1N (stereo not drawn)	-37.9	0.673	-7.8
i	-0.3	1.0	-7.1	-5.5	0.4	COC(=O)/C=C1/S/C(=N/NC(=O)c2ccc(Cl)cc2Cl)NC1=O	8.7	0.688	-7.9
i	2.3	3.0	-5.4	15.7	10.1	CCCCCOC(=O)C1=C(C)NC(=O)NC1c1ccc(N(C)C)cc1 (stereo not drawn)	-7.5	0.635	-0.7
i	0.9	-1.7	-2.1	4.0	-1.6	CSc1ncccc1C(=O)N1CCN(C(=O)c2ccccc2)CC1	1.1	0.672	-44.2
i	4.1	2.6	-3.8	9.2	6.7	O=C(CSc1nnc(-c2ccco2)n1-c1ccccc1)Nc1c(Cl)cc(Cl)cc1C(=O)O	-0.7	0.664	7.8
i	0.7	6.0	-2.1	-2.2	-5.1	COc1ccc(NC(=O)COC(=O)CCC2CCCCC2)cc1	-0.3	0.706	-5.0
i	3.0	-1.6	3.2	18.6	6.9	CCC1=[N+](CC(=O)c2ccc(C)cc2)CCn2c(C)ccc21	-22.7	0.7	.
i	-0.2	-0.8	-5.6	3.7	3.0	Cc1ccccc1CC(=O)N1CCN(C(=O)c2ccco2)CC1	2.8	0.707	-5.9
.	20.7	.	-81.1	.	.	CC(C)c1ccc2nc3sc(C(=O)N4CCc5ccccc5C4)c(N)c3cc2c1	6.6	0.76	-2.1
i	1.5	0.4	14.7	3.5	3.7	CCOc1ccc(CCNC(=O)c2cccc(NC3=NC4CS(=O)(=O)CC4S3)c2)cc1 (stereo not drawn)	0.6	0.754	2.0

Next entries follow:
FGF22 binding	HNF4A DNA FP	rRNA inh HTS RFP	B2AR ag	rRNA inh HTS	rRNA inh HTS OD600	Structure	UCH37 DUB inh	Ecoli growth	ALR inh
i	-1.5	-0.9	1.9	2.1	6.3	COc1ccc(Cl)cc1N(C(C)=O)c1nc(C)cc(C)c1C#N	1.1	0.694	-67.6
i	3.2	-1.2	-8.4	-2.7	7.0	COc1ccc2nc3sc(C(=O)NCCN4CCc5ccccc5C4)cc3cc2c1	-5.0	0.636	-14.6
i	0.9	0.0	.	-5.7	-12.0	Cc1ccc(F)c(S(=O)(=O)NC(=O)C2(C)CCN2C(=O)Cc2ccc(C(C)(C)C)cc2)c1 (stereo not drawn)	.	.	.
i	5.8	0.4	12.9	-10.0	-4.7	Cc1cc2c(=O)oc(-c3ccc(Br)cc3)nc2s1	-2.6	0.728	31.5
.	-0.5	.	8.0	.	.	COC(=O)Cc1c(C)nc2nc(NCc3c(F)cccc3Cl)[nH]n2c1=O	0.9	0.762	3.0
i	-3.5	-3.2	-1.4	-3.9	-2.5	COc1ccc(NC(=O)C2CCCCC2)cc1S(=O)(=O)N1CCOCC1	1.8	0.678	-4.4
i	-2.7	3.0	9.0	8.6	1.3	Cc1ccccc1Nc1nc(N)nc(COc2ccc(C#N)cc2)n1	.	.	-10.3
i	-1.9	0.3	.	-3.6	-3.4	COc1ccc(C(C)(NC(C)=O)c2nc(-c3cccc(C(=O)O)c3)cs2)cc1 (stereo not drawn)	.	.	.
i	3.6	.	-11.1	.	.	O=C(CCc1nnc2n(Cc3ccc(Cl)cc3)c(=O)c3ccccc3n12)NCCCN1CCOCC1	2.4	0.698	2.0
i	-2.6	4.6	-5.3	-6.3	8.4	Cc1cc(C)[n+](C)n1CC(O)Cn1c2ccccc2c2ccccc21 (stereo not drawn)	7.3	0.675	-2.6

2 of the compounds above, bar-delimited:
canonical_smiles | FGF22 binding | HNF4A DNA FP | rRNA inh HTS RFP | B2AR ag | rRNA inh HTS | rRNA inh HTS OD600 | UCH37 DUB inh | Ecoli growth | ALR inh
COc1ccc(C(C)(NC(C)=O)c2nc(-c3cccc(C(=O)O)c3)cs2)cc1 (stereo not drawn) | i | -1.9 | 0.3 | . | -3.6 | -3.4 | . | . | .
O=C(CCc1nnc2n(Cc3ccc(Cl)cc3)c(=O)c3ccccc3n12)NCCCN1CCOCC1 | i | 3.6 | . | -11.1 | . | . | 2.4 | 0.698 | 2.0

Next part
FGF22 binding	HNF4A DNA FP	rRNA inh HTS RFP	B2AR ag	rRNA inh HTS	rRNA inh HTS OD600	Structure	UCH37 DUB inh	Ecoli growth	ALR inh
i	-2.0	1.6	-0.2	15.1	7.7	Cc1cc(C(F)(F)F)nn1CC(=O)NCc1ccco1	-1.1	0.67	4.5
i	4.8	1.4	0.3	10.2	8.1	O=Cc1ccc(Oc2cccc(C(F)(F)F)c2)nc1	2.2	0.651	14.0
.	4.0	.	5.0	.	.	CCN(CC)CC(=O)c1c[nH]c2ccc(C)cc12	5.9	0.753	-1.2
i	-3.1	-2.1	-0.5	-10.6	-12.9	Cc1ccc(C)c(OCCCC(=O)Nc2ccccc2C(N)=O)c1	-0.8	0.661	7.9
.	5.7	.	-3.7	.	.	CC1(C)Cc2c(C#N)c(OCC(=O)c3ccc(Cl)cc3)nc(-c3ccco3)c2CO1	-22.3	0.799	3.7
i	1.1	1.1	3.6	-0.1	1.4	Cn1c(CC(=O)Nc2ccccc2Cl)nnc1SCC(=O)NC1CCCCC1	0.3	0.657	12.2
i	-4.0	-3.5	3.4	-6.9	-8.7	COc1ccc(-n2c(=O)[nH]cc(C(=O)Nc3ccc4c(c3)OCO4)c2=O)cc1OC	6.4	0.647	-1.4
.	2.3	.	-9.8	.	.	CCN(CC(=O)Nc1cc(C)nn1-c1nc(C)cc(C)n1)Cc1ccccc1	2.1	0.681	.
.	3.5	.	18.9	.	.	N#Cc1cc(-c2ccccc2)nn1-c1ccccc1	6.6	0.709	-15.1
.	0.0	.	-7.3	.	.	NC(=O)CSc1nnc2sc3ccccc3n12	24.4*	0.605	-14.4

Further compounds follow:
FGF22 binding	HNF4A DNA FP	rRNA inh HTS RFP	B2AR ag	rRNA inh HTS	rRNA inh HTS OD600	Structure	UCH37 DUB inh	Ecoli growth	ALR inh
i	2.8	-13.3	-7.6	-35.1	-50.2	O=C(C1CC1)N1CCCC(c2ccc(Cl)cc2)=N1	5.3	0.665	-8.4
i	1.0	1.3	2.3	5.6	-1.3	O=C(NC1CCCCC1)C1CCN(C(=O)c2ccccc2Cl)CC1	0.2	0.589	.
.	0.1	.	-88.3	.	.	O=S(=O)(c1ccccc1)N1CCN=C1SCc1ccc(Cl)c(Cl)c1	6.9	0.708	50.0
i	3.0	-1.0	-5.3	0.7	6.5	Nc1cccc(-c2nc3ncccc3o2)c1	0.5	0.654	46.8
.	3.0	.	3.8	.	.	Cc1ccc(NC(=O)CN2CCCC2)c2c1CC(C)(C)O2	-1.3	0.668	-6.8
i	4.2	8.4	-3.5	-12.1	-16.4	O=C(NCCc1ccccc1)C(=O)NCCC1CCCCN1S(=O)(=O)c1cccs1 (stereo not drawn)	.	.	-42.5
.	0.0	.	0.3	.	.	CC1CCN(c2cc(N3CCN(C(=O)c4ccc(F)c(F)c4)CC3)c([N+](=O)[O-])cc2F)CC1	0.2	0.73	-4.1
i	-5.7	3.8	-10.1	12.3	5.3	CCCn1c(=O)c2c(nc3n2CCS3)n(C)c1=O	-1.0	0.685	-8.4
i	-3.5	-1.2	7.1	0.8	1.0	Cc1ccc(NC(=O)CCS(=O)(=O)c2ccc3c(c2)NC(=O)C(C)S3)nc1 (stereo not drawn)	1.1	0.695	-6.8
i	3.3	6.0	8.6	11.4	15.0	CC1=NNC(=O)C1CC(=O)N/N=C/c1cccs1 (stereo not drawn)	.	.	18.2

(more compounds)
FGF22 binding	HNF4A DNA FP	rRNA inh HTS RFP	B2AR ag	rRNA inh HTS	rRNA inh HTS OD600	Structure	UCH37 DUB inh	Ecoli growth	ALR inh
.	-2.1	.	5.3	.	.	COc1ccc(-c2noc(C3CCCN(S(=O)(=O)c4ccc(C)c(Cl)c4)C3)n2)cc1OC (stereo not drawn)	-0.5	0.656	.
.	0.7	.	-4.8	.	.	N#CCOc1nc(N2CCOCC2)nc(N2CCOCC2)n1	0.1	0.661	13.5
i	4.0	-2.2	-4.5	6.4	9.1	Cc1cccc(NC(=O)c2nc[nH]c2C(=O)NCCCCCCNC(=O)c2[nH]cnc2C(=O)Nc2cccc(C)c2)c1	-1.2	0.699	-7.1
i	1.0	-1.8	1.2	4.5	13.1	Cc1ccccc1CN1CCN(c2ccc(S(=O)(=O)N3CCCC3)cn2)CC1	3.8	0.692	-7.6
i	-0.1	7.2	0.6	7.4	12.6	O=C(CN(C(=O)Cn1nnc(-c2ccc(F)cc2)n1)c1cnc2ccccc2c1)NCC1CCCO1 (stereo not drawn)	-0.8	0.701	-3.8
i	-4.3	-1.4	.	-17.9	-35.5	CCc1nc2ccc(C(=O)N(C)C(C)C)cn2c1N(CC)Cc1cccc(Br)c1	.	.	.
.	2.9	.	-8.7	.	.	COc1ccc(-c2nnc3ccc(SCC(=O)Nc4nc5ccc(C)cc5s4)nn23)cc1OC	-12.0	0.701	43.9
.	0.1	.	-3.0	.	.	Cn1c(=O)c(=O)n(C)c2cc(S(=O)(=O)N3CCN(c4ccccc4F)CC3)ccc21	-12.1	0.7	0.6
.	2.1	.	-5.5	.	.	CNC(=O)C1=C(C)NC(=S)NC1c1cc2c(cc1OC)CCCC2 (stereo not drawn)	3.8	0.639	-1.5
.	.	.	.	.	.	CCn1c(-c2cc(-c3ccc(C)c(C)c3)nc3ccccc23)n[nH]c1=S	-35.6	0.654	40.1
